H5N1 CPE: MDCK cell protection from H5N1 avian flu | cytopathic effect, luminescence, 72 h; active compounds read high; no value below 0 was filed and about half of the inactive calls have no number; reference of the scale not given here | inhibition, % at 50 µM | hit rate 0.07% among 96,000 | AID 740, 2007; in the data active means inhibition above about 25%
Active calls of the source: *; i = inactive.

nr	molecule	H5N1 CPE
1	CCn1cc(C(=O)NCCOC)c(=O)c2ccc(C)nc21	0.6
2	COc1ccc(C2SCC(=O)Nc3c2c(C)nn3-c2ccccc2)cc1OC (stereo unspecified)	0.3
3	Cc1oc2c(CN3CCOCC3)c(O)ccc2c(=O)c1-c1ccccc1	0.3
4	Cc1cc(C)cc(NC(=O)C2CCCN(c3nc(C)cc(C)n3)C2)c1 (stereo unspecified)	i
5	CC1(C)CC(=O)c2sc(NC(=O)C3COc4ccccc4O3)nc2C1 (stereo unspecified)	i
6	COc1cccc(C2CC(=O)N3CN(c4cccc(Cl)c4C)CSC3=C2C#N)c1OC (stereo unspecified)	0.8
7	O=C(Cn1c(-c2cscn2)nc2ccccc21)Nc1ccc2ccccc2c1	2.3
8	Cc1noc2ncnc(Sc3ccccc3Cl)c12	2.8

Overlap with the part before: 3 compounds, then new ones.
nr	molecule	H5N1 CPE
6	COc1cccc(C2CC(=O)N3CN(c4cccc(Cl)c4C)CSC3=C2C#N)c1OC (stereo unspecified)	0.8
7	O=C(Cn1c(-c2cscn2)nc2ccccc21)Nc1ccc2ccccc2c1	2.3
8	Cc1noc2ncnc(Sc3ccccc3Cl)c12	2.8
9	COC(=O)c1c(NC(=O)C2CC(=O)NN2Cc2ccccc2)sc(C)c1C (stereo unspecified)	1.4
10	COc1ccc(NC(=O)c2coc3ccccc23)cc1OC	i
11	COc1ccc(-c2csc(Cc3nnc(N4CCOCC4)n3-c3ccccc3)n2)cc1OC	0.3
12	CCOc1ccc(Nc2ncnc(N)n2)cc1	i
13	CCCN(CCC)C(=O)Cn1c(=O)n(CCCCC(=O)NC2CCCC2)c(=O)c2ccccc21	0.1
14	O=P(CCNCc1ccco1)(c1ccccc1)c1ccccc1	1.1
15	CC(C)C(=O)Nc1nnc(CCc2nnc(NC(=O)C(C)C)s2)s1	i
16	O=C(Oc1ccc([N+](=O)[O-])cc1)c1cc(-c2ccccc2)nc2ccccc12	0.4
17	CCCC(C)NCC(=O)Nc1ccccc1-c1ccccc1 (stereo unspecified)	i
18	COCCNC(=O)CN(c1ccccc1OC)S(C)(=O)=O	i
19	CC(=O)C1C(=O)NC23CCCCC2C1c1ccccc1O3 (stereo unspecified)	0.3
20	O=C1N(O)C2(C=CCCC2)/C(=N\O)C12CCCCC2 (stereo unspecified)	0.1
21	Cn1c2ccccc2n2c(=O)c(=O)n(CC(=O)c3ccc(F)cc3)nc12	0.2
22	COc1ccc(NC(=O)COC(=O)CCCc2c[nH]c3ccccc23)cc1	i
23	CSCCC1NC(=O)N(CC(=O)Nc2c(Cl)cc(Cl)cc2Cl)C1=O (stereo unspecified)	i
24	Cc1ccccc1N(CC(=O)NCCSC1CCCCC1)S(=O)(=O)c1ccccc1	0.1
25	COc1ccc(C2=C(C)CC(C)(C)NC2=O)cc1OC	0.0
26	O=C(NC1CCS(=O)(=O)C1)c1c(NC(=O)C2COc3ccccc3O2)sc2c1CCCC2 (stereo unspecified)	1.8
27	Cc1ccc(-c2ccc(NC(=O)C3C4C=CC(C4)C3C(=O)O)cc2)o1 (stereo unspecified)	0.1
28	N#CC1=C(SCC(=O)c2cc3ccccc3oc2=O)NC(=O)C(C#N)C12CCCC2 (stereo unspecified)	i
29	Cc1nnc(SCC(=O)c2cc(C)n(-c3c(C)n(C)n(-c4ccccc4)c3=O)c2C)s1	i
30	COc1ccc(Cc2nn3c(Cn4nnc5ccccc54)nnc3s2)cc1	2.6
31	COc1cccc(CN(C(=O)c2cc3ccccc3oc2=O)C2CC2)c1	i
32	Fc1ccc(C(c2nnnn2C2CCCC2)N(Cc2ccco2)CC2CCCO2)cc1 (stereo unspecified)	0.3
33	COCCn1c(C)cc(C(=O)COC(=O)c2ccc(NC(=O)CC#N)cc2)c1C	4.0
34	COc1cc(C)ccc1S(=O)(=O)N1CCN(C23CC4CC(CC(C4)C2)C3)CC1	2.4
35	COc1cccc(NC(=O)CCS(=O)(=O)c2cccs2)c1	0.5
36	CC(C)(C)NC(=O)C(c1ccc(F)cc1)N(Cc1ccco1)C(=O)c1csnn1 (stereo unspecified)	i
37	O=C(CCn1cnc2ccccc2c1=O)Nc1ccc(Cl)c(Cl)c1	0.1
38	CC12CC(NC(=O)N1c1cccc(C(=O)Nc3ncn[nH]3)c1)c1ccccc1O2 (stereo unspecified)	1.3
39	Cc1cc(C)cc(N(C(=O)Cc2cccs2)C(C(=O)NC2CCCCC2)c2ccccn2)c1 (stereo unspecified)	i
40	Cc1ccccc1S(=O)(=O)Cc1ccc(C(=O)NCCN2CCN(Cc3ccccc3)CC2)o1	i
41	Cc1cc(C)n(-c2cc(N3CCN(S(=O)(=O)c4ccc(C)c(C)c4)CC3)ccc2[N+](=O)[O-])n1	i
42	COc1ccc(C2NCCO2)cc1OC (stereo unspecified)	i
43	O=c1c2ccccc2c(-c2ccc(F)cc2)nn1-c1ccc(C(F)(F)F)cc1	0.1
44	Cn1nnnc1SCc1cc(=O)[nH]c2ccccc12	0.6
45	CCOC(=O)CC(N)c1ccc(OC)cc1 (stereo unspecified)	i
46	COCCNC(=O)CSc1nc2c(n1-c1ccccc1)CCCC2	i
47	Cc1ccc(NC(=S)c2nc3ccccc3[nH]2)cc1	i
48	CC(=O)Nc1ccc(Sc2ncccc2C(=O)Nc2ccc(OC(F)(F)F)cc2)cn1	i
49	Cc1cccc(NCc2nc3ccccc3n2Cc2ccccc2)c1	0.0
50	COC(=O)c1cc2c(ccn2-c2ccc(F)cc2)n1C(C)C	i
51	CCOc1cccc(CNc2ccc(O)cc2)c1OCc1ccc(Cl)cc1Cl	i
52	CCn1cc(C(=O)N2CCCC2)c(=O)c2cc(S(=O)(=O)N(C)C)ccc21	1.1
53	CC(=O)OC1CC(C)(C)N(OC(=O)c2ccc(N)cc2)C(C)(C)C1	1.1
54	CCOC(=O)c1[nH]c(C)c(CCC(=O)OC)c1C	0.1
55	CCn1c(=O)c(C(=O)CN2CCOCC2)c(N)n(Cc2ccccc2)c1=O	0.2
56	COc1cccc(N(CC(=O)NCCSc2ccccn2)S(C)(=O)=O)c1	i
57	COc1ccc2nc(NC(=O)C(NS(=O)(=O)c3cccc4nsnc34)C(C)C)sc2c1 (stereo unspecified)	0.8
58	O=C(CSc1nnc(-c2ccc(S(=O)(=O)N3CCCC3)cc2)n1CC1CCCO1)NC1CC1 (stereo unspecified)	0.2
59	CCOC(=O)c1cc(-c2ccncc2)nc2c1c(C)nn2C	i
60	Cn1c(-c2ccc(Br)cc2)cnc1NCc1cccnc1	i
61	COc1ccccc1S(=O)(=O)Cc1ccc(C(=O)N2CCN(c3ccccc3)CC2)o1	0.8
62	Cc1cc(C)c(S(C)(=O)=O)c(Sc2ccc(Cl)cc2)n1	2.5
63	COC(=O)Cc1c(C)c2c(O)cc(C)cc2oc1=O	0.6
64	CCC1SC2=NC(C)=C(C(=O)OC)C(c3cccs3)N2C1=O (stereo unspecified)	i

Remaining list, next part.
nr	molecule	H5N1 CPE
65	O=C(O)c1ccccc1CSc1nc2ccccc2o1	i
66	COc1ccccc1NC(=O)N(Cc1ccco1)Cc1cc2cc(C)cc(C)c2[nH]c1=O	i
67	Cc1nc2ccc(S(=O)(=O)NCC(=O)N(C)Cc3ccco3)cc2s1	i
68	Cc1cccc(Nc2ncnc3ccccc23)c1	i
69	CCC(=O)Nc1ccc(S(=O)(=O)Nc2cccnc2)cc1	0.7
70	COc1cccc(-c2cnc(NCc3cc(Cl)ccc3O)n2C)c1	i
71	CCCn1c(N2CCN(Cc3cccc(C)c3)CC2)nc2c1c(=O)[nH]c(=O)n2C	0.1
72	CN1c2ccsc2C(O)=C(C(=O)Nc2ccccc2)S1(=O)=O	26*

Reprinted at random: 4 compounds from above
nr	molecule	H5N1 CPE
67	Cc1nc2ccc(S(=O)(=O)NCC(=O)N(C)Cc3ccco3)cc2s1	i
65	O=C(O)c1ccccc1CSc1nc2ccccc2o1	i
69	CCC(=O)Nc1ccc(S(=O)(=O)Nc2cccnc2)cc1	0.7
66	COc1ccccc1NC(=O)N(Cc1ccco1)Cc1cc2cc(C)cc(C)c2[nH]c1=O	i

(further entries)
nr	molecule	H5N1 CPE
73	CC1=C(C(=O)Nc2cccnc2)C(c2ccncc2)n2nnnc2N1 (stereo unspecified)	i
74	CCN1CC(O)=C(c2nc3ccccc3s2)C1=N	0.6
75	Cc1nn(Cc2ccc(Cl)cc2Cl)c(C)c1NC(=O)c1ccc(COc2cc(Cl)ccc2Cl)o1	i
76	COc1ccc(/C=N/NS(=O)(=O)c2ccccc2)cc1OS(=O)(=O)c1ccc(C)cc1	0.3
77	CCCc1cc(=O)oc2c(CN3CCN(C)CC3)c(O)c(Cl)cc12	i
78	O=C(/C=C/c1ccc(Cl)cc1)N1CCN(c2ccc(Cl)cc2[N+](=O)[O-])CC1	0.2
79	O=C(COC(=O)C1CCN(S(=O)(=O)c2cccc3cccnc23)CC1)c1ccc([N+](=O)[O-])cc1	0.8
80	Cc1ccc(C(=O)Nc2ncc(Cc3ccccc3)s2)o1	i
81	Cc1ccc(C(C)C)c(OCC(=O)Nn2c(C)nc3ccccc3c2=O)c1	i
82	Cc1ccc(NC(=O)CO/N=C(\N)c2nonc2N)cc1	i
83	O=C1CCCc2[nH]nc(-c3cccnc3)c21	1.5
84	C=CCNC(=O)c1oc2ccc(S(=O)(=O)N(CC)CC)cc2c1C	1.2
85	CC(=O)N1CCN(c2ccc(NCc3ccc4c(c3)OCO4)cc2)CC1	0.5
86	Cc1cc(C)cc(Nc2cnn(C34CC5CC(CC(CC(=O)O)(C5)C3)C4)c(=O)c2Cl)c1	2.3
87	Cc1ccc(-n2cc(C(=O)c3ccc(F)cc3)nn2)cc1Cl	1.0
88	Cc1ccc(C(=O)OCn2ncc(Cl)c(Cl)c2=O)cc1	i
89	O=C(NCCc1c[nH]c2ccccc12)c1cc2sccc2n1Cc1ccccc1	2.1
90	CCOC(=O)/C(C#N)=C1/SC(CC)C(=O)N1c1ccc(C)cc1 (stereo unspecified)	i
91	OC(c1cccnc1)c1cccs1 (stereo unspecified)	1.4
92	C/C(=N\OCC(=O)N/N=C/c1ccc(C)cc1O)c1cccs1	6.3
93	O=C(O)CCC(NC(=O)C(Cc1ccc2c(c1)OCO2)NC(=O)c1ccccc1)C(=O)O (stereo unspecified)	0.2
94	COC(=O)c1[nH]c(C)c(/C(O)=C2\C(=O)C(=O)N(CCN(C)C)C2c2ccco2)c1C (stereo unspecified)	i
95	CCCCCCNS(=O)(=O)c1ccc(Cl)s1	0.5
96	CCOc1cc(C(=O)NCc2nnc(SCC(=O)OC)n2C)cc(OCC)c1OCC	i
97	O=C(Nc1ccc(SC(F)F)cc1)C1=COCCO1	0.9
98	CCn1c(SCC(N)=O)nnc1-c1ccc(S(=O)(=O)N2CCN(C)CC2)cc1	i
99	O=C(CSC1=NCCS1)Nc1nc2c(s1)CCCC2	0.2
100	COC(=O)n1ccc(C(=O)Nc2ccccc2F)n1	0.8
101	COc1ccc(C(=O)CN2C(=O)NC(C)(c3ccc(C)cc3)C2=O)cc1OC (stereo unspecified)	i
102	COC(=O)CN(c1ccccn1)S(=O)(=O)c1ccccc1	i
103	Cc1ccc(CNc2oc(-c3cccs3)nc2C#N)cc1	i
104	COCC(=O)Nc1sc2c(c1C(=O)OC)CCC(C)C2 (stereo unspecified)	0.1

Compounds above with a CF3 group (2):
nr	molecule	H5N1 CPE
43	O=c1c2ccccc2c(-c2ccc(F)cc2)nn1-c1ccc(C(F)(F)F)cc1	0.1
48	CC(=O)Nc1ccc(Sc2ncccc2C(=O)Nc2ccc(OC(F)(F)F)cc2)cn1	i

More structures follow:
nr	molecule	H5N1 CPE
105	COc1cccc(N2CCN(CC(=O)c3c[nH]c4ccc(OC)cc34)CC2C)c1 (stereo unspecified)	0.4
106	CCn1c(C)nc2cc(C(=O)OC(C(F)(F)C(F)F)C(F)(F)C(F)F)ccc21	0.1
107	O=C(CCC(=O)OCC(=O)c1ccc(-c2ccccc2)cc1)Nc1cccc2cccnc12	i
108	CC1=CS(=O)(=O)CC1Sc1nc2ccccc2[nH]1 (stereo unspecified)	0.3
109	COc1cc2c(cc1NC(=O)c1cccnc1)oc1ccccc12	i
110	O=C1C2C(C(=O)N1c1ccncc1)C1C=CC2C12CC2 (stereo unspecified)	0.1
111	CCCCc1cc(=O)oc2cc(C)c(CN3CCCC3)c(O)c12	5.7
112	CCCn1c(CN(Cc2ccccc2)Cc2ccccc2)nc2c1c(=O)n(C)c(=O)n2C	i
113	COc1ccc(Nc2ncccc2C(=O)Nc2ccccc2)cc1	i
114	Cc1noc(C)c1COC(=O)c1ccccc1Oc1ccccc1	i
115	CC1CCCCN1C(=O)N[C@@H](Cc1ccccc1)C(=O)O (stereo partly specified)	0.0
116	O=C(NCC1c2ccccc2CCN1C(=O)CN1C(=O)c2ccccc2C1=O)C1CCCCC1 (stereo unspecified)	i
117	O=c1cc(CSc2ccc(Cl)cc2)nc(N2CCOCC2)[nH]1	0.2
118	CCOC(=O)c1c(C)oc2c(CN3CCN(C)CC3)c(Br)c(OC)c(O)c12	0.7
119	C/C(=N\NC(=O)c1cccc(Cl)c1)c1cccc(NC(=O)C(C)C)c1	0.8
120	CCOC(=O)c1[nH]c(C)c(C(=O)Nc2cc(Cl)ccc2C)c1C	i
121	CCOC(=O)C(C)n1cnc2c(nnn2-c2ccc(C)cc2)c1=O (stereo unspecified)	i
122	O=C(OCc1cccc(F)c1)c1ccc2c(c1)-c1ccccc1C2=O	0.0
123	Cc1nnc(SCC(=O)N2CC(=O)Nc3ccccc32)n1C	i
124	O=C(Nc1ccc(S(=O)(=O)Nc2nccs2)cc1)c1cc(-c2ccccc2Cl)nc2ccccc12	0.6
125	CCc1ccc(C(C)NC(=O)c2cc(C)oc2C)cc1 (stereo unspecified)	0.6
126	CC1CCC(NC(=O)C2(C)CCC(=O)N2Cc2cccnc2)CC1 (stereo unspecified)	i
127	C=CCn1c(SCC(=O)Nc2cc(C)cc(C)c2)nnc1-c1cnccn1	i
128	COCCNC(=O)C(c1ccco1)N(C(=O)Cn1nnc2ccccc21)c1ccc(C)cc1C (stereo unspecified)	0.4
129	O=C(CCOc1ccccc1)Nc1ccccc1	0.3
130	O=C(CN1CCN(C(=O)c2ccco2)CC1)Nc1ccc2c(c1)OCCO2	0.7

Results in sequence from above.
Compounds 123–128 in H5N1 CPE, in turn: i, 0.6, 0.6, i, i, 0.4

Not all compounds are listed (hit frequency here may not be typical).
